PK Bst: modulators of Bacillus stearothermophilus pyruvate kinase | partly purified Bacillus stearothermophilus pyruvate kinase, luminescence ATP production; ribose 5-phosphate activator present at AC10 | 51,000 tested, 1.2% active | Potency, µM; in the data active means potency below about 11 µM; inconclusive means mostly about 12 µM to 25 µM; inactive means weaker than that;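 the screen sought inhibitors and activators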;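 further: potency means the concentration at half of the fitted maximal effect; scaled between full activation by ribose 5 phosphate and full inhibition by luteolin; about four in five hits inhibit and the cells do not say which; series up to 57 µM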
TsaE inh: inhibitors of E. coli YjeE (TsaE); 71,000 tested, 0.05% active; P0AF67; purified YjeE, fluorescence polarisation of a bound ADP probe; Potency, µM; active = well fitted falling curve; inconclusive = weaker or top-dose-only fall, or a rising curve; inactive = flat or poorly fitted curve;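 further: top concentration of the series not given in the record; excess ADP was the control for the full effect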
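Fluorescence polarization of a BODIPY Texas Red–ADP probe (2 uM) bound to purified YjeE (10 uM) was read after 15 min room-temperature incubation with compounds. Loss of polarization marks inhibitors; ADP serves as titrated control.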
Numbers without * were called inactive; i = inactive; u = inconclusive; x = no result given. Some of the compounds tested. The share of hits here may be higher or lower than overall.

Under each structure – PK Bst, TsaE inh
N#CC1=C(N)C(C#N)(C#N)[C@H](c2c(F)cccc2F)[C@H]2CC3(CC=C12)OCCO3
    >57, i
Cc1cc(S(=O)(=O)N2CCC(NC(=O)C34CC5CC(CC(C5)C3)C4)CC2)ccc1-n1cnnn1
    >57, i
CC(=O)Nc1ccc(NC(=O)CN(c2ccccc2Cl)S(C)(=O)=O)cc1
    >57, i
CCCCC(=O)Nc1ccc(C(=O)NCC(=O)OC)cc1
    >57, i
CCOC(=O)CN1C(=O)COc2ccc(C(C)(C)C)cc21
    >57, i
O=c1[nH]c(=O)n([C@H]2C[C@H](O)[C@H](CO)O2)cc1Br
    x, i
CCOC(=O)c1ccccc1NC1c2ccccc2C(=O)N1c1ccc(C)cn1 (configuration not stated)
    x, i
COc1ccc(-c2csc3ncnc(NCCN4CCOCC4)c23)cc1
    >57, i
O=C(O)[C@H]1CN(CCCP(=O)(O)O)CCN1
    x, i
CCN(CC)c1nc2n(c(=S)n1)CCS2
    >57, i
CC(C)NC(=O)N1CC2(CCN(C(=O)c3ccncc3)CC2)C1
    x, i
CSc1nc(O)c(Cc2ccccc2)c(=O)[nH]1
    >26, x
COc1ccccc1-c1nc(C#N)c(N2CCc3ccccc3C2)o1
    u, i
Fc1ccc2nc3[nH]c4ccccc4c3nc2c1
    3.7*, i
O=S1(=O)C=C(Sc2nc3cc(Cl)ccc3o2)c2ccccc21
    >57, i

The list continues.
Under each structure – PK Bst, TsaE inh
COc1ccc(N2C(=O)CCC(C(=O)N3CCOCC3)C2c2ccc(F)cc2)cc1 (configuration not stated)
    >57, i
Cc1cc(C)c2c(n1)nn1c(C3CC3)cc(C(F)(F)F)nc21
    >57, i
CCOC(=O)COn1c2c(c3c4no[n+]([O-])c4ccc31)CCCC2
    >57, i
O=C(NC1CC2CCCC(C1)N2C1CC1)NC12CC3CC(CC(C3)C1)C2 (configuration not stated)
    >57, i
Cc1cc(NC(=O)CN2C(=O)C3CC=CCC3C2=O)no1 (configuration not stated)
    >57, i
Cc1ccc(S(=O)(=O)c2nc(S(C)(=O)=O)sc2NCC2CCCO2)cc1 (configuration not stated)
    x, i
CC(C)COC(=O)C(N)C(C(=O)OCC(C)C)c1ccccc1 (configuration not stated)
    >57, i
Cc1ccc(C(=O)NCCNC(=O)CN2CCOCC2)cc1
    >57, i
O=C(NCc1cccc(Cl)c1)c1ccco1
    >57, i
COc1cccc(-c2nn(C)c3sc(C(=O)NCc4ccc5c(c4)OCO5)cc23)c1
    x, i
O=C(CN(CCc1ccccc1)C(=O)CNS(=O)(=O)c1ccc(F)cc1)NCC1CCCO1 (configuration not stated)
    >57, i
Cn1c(SCC(=O)NC2CCCCC2)nnc1-c1cc2cc(Cl)ccc2o1
    >57, i
O=C(NCCCN1CCOCC1)c1ccc(Br)s1
    >57, i
CCOC(=O)C1CCN(CCC(=O)Nc2cccc(Cl)c2)CC1
    x, i
C=CCNc1nc(C2(C)CC3(CC(C)(C)OC3=O)C(=O)O2)cs1 (configuration not stated)
    >26, x

The list continues:
Under each structure – PK Bst, TsaE inh
O=C(CCCn1c(=O)c2sccc2n(CC(=O)NCc2ccco2)c1=O)NCc1ccco1
    >57, i
COc1ccc(C(c2nnnn2Cc2cccs2)N2CCN(c3ccc(F)cc3)CC2)cc1OC (configuration not stated)
    >57, i
O=C(O)CNC1=NCCCCC1
    >57, i
O=C(Nc1ccc2nn(-c3ccccc3)nc2c1)c1ccc2c(c1)OCCO2
    x, i
Cc1ccc2c(c1)nnn2C1CCN(C(=O)C2CCCCC2)CC1
    >57, i
CC1CCCCC12NC(=O)N(CC(=O)NCCc1ccccn1)C2=O (configuration not stated)
    >57, i
COc1ccc(C2C3=C(Nc4ncnn42)c2ccccc2CC3)cc1OC (configuration not stated)
    >57, i
O=C(CN1CCc2ccccc2C1)c1cccs1
    >57, i
N#CC1=C(N)Oc2cc(N)ccc2C1C1CC=CCC1 (configuration not stated)
    >57, i
O=c1cc(CN2CCC3(CC2)OCCO3)c2c(ccc3ccccc32)o1
    >57, i
N#Cc1cc2c(nc1SCc1nc3ccccc3[nH]1)CCC2
    6*, i
CC(=O)Nc1ccc2nc(-c3ccccn3)[nH]c2c1
    u, i
CCNC(=O)CCC(=O)Nc1cc(Cl)ccc1C
    x, i
Cc1cc(O)c(C(C)C)cc1NC1=NS(=O)(=O)c2ccccc21
    >57, i
O=C(c1ccc(=O)oc1)N1CCOCC1
    >11, x

New compounds follow.
| Structure | PK Bst | TsaE inh |
| --- | --- | --- |
| CSc1nsc(SCc2ccc(F)cc2)n1 | >57 | i |
| Cc1ccc(C(=O)C2=C(O)C(=O)N(CCN3CCOCC3)C2c2ccccn2)o1 (configuration not stated) | >26 | x |
| CCc1cc2c(=O)c(-c3nc4ccccc4n3C)coc2c(CN2CCOCC2)c1O | x | i |
| O=C(Nc1cccc(F)c1)N1CC2(CCN(C(=O)c3csnn3)CC2)C1 | x | i |
| CC(C)C(=O)N(Cc1cc2ccccc2[nH]c1=O)C(C)C | >57 | i |
| CC12COC3(C(=O)Nc4cccnc4)CC1CCC32C (configuration not stated) | >57 | i |
| Cn1c(=O)c2c(nc(SCCN3CCOCC3)n2Cc2ccccc2)n(C)c1=O | >57 | i |
| CC(C)(CNC(=O)c1cccs1)CNC(=O)c1cccs1 | x | i |
| O=C1COc2ccc(OCc3ccc(F)cc3)cc21 | x | i |
| O=S(=O)(c1cccc2cnccc12)N1CCNCC1 | x | i |
| O=C(O)c1ccccc1S(=O)(=O)NCC(O)COC1CCCCC1 (configuration not stated) | >57 | i |
| COc1cccc(C2=CC(c3cccc(OC)c3OC)n3nnnc3N2)c1 (configuration not stated) | x | i |

(cont.)
| Structure | PK Bst | TsaE inh |
| --- | --- | --- |
| CCC(C(=O)NCc1ccco1)N(C(=O)CNS(=O)(=O)c1ccc(C)cc1)c1ccccc1OC (configuration not stated) | >57 | i |
| CCc1c(C)c(C#N)c2nc3ccccc3n2c1N(C)C | >57 | i |
| CCCCCSc1nncc(=O)[nH]1 | >57 | i |
| Cc1cccc(C)c1OCc1nnc(SCC(=O)Nc2ccccc2F)o1 | x | i |
| COCCCn1c(SCC(=O)N2CCCCC2C)nnc1-c1ccco1 (configuration not stated) | >57 | i |
| O=C(N1CCOCC1)C(F)(F)C(F)(F)C(F)(F)C(F)(F)C(=O)N1CCOCC1 | x | i |
| CC(=O)N1CCc2cc(S(=O)(=O)NCCC(=O)Nc3cc(C)cc(C)c3)ccc21 | >57 | i |
| COC(=O)N(C)CCCC1(C)C(=O)N(C)c2ccc(O)cc21 (configuration not stated) | >57 | i |
| NC(=O)C1CCN(C(=O)N2c3ccccc3Sc3ccccc32)CC1 | >57 | i |
| CCOC(=O)c1c(NC(=O)CSc2nc3c(c(=O)n(C)c(=O)n3C)n2CC)sc(C)c1C | >57 | i |
| CC(CCc1ccccc1)NCC(O)c1ccc(O)c(C(N)=O)c1 (configuration not stated) | >26 | x |
| CCN(CC)CCOC(=O)c1ccc(NC(=O)COc2cc(=O)n(CC)c3ccccc23)cc1 | >11 | i |

(more compounds)
| Structure | PK Bst | TsaE inh |
| --- | --- | --- |
| O=C(NC1CCCC1)C(c1ccccc1)N(C(=O)c1ccno1)c1cccnc1 (configuration not stated) | >57 | i |
| Cc1cc2nc3c(nc2cc1C)C1(C(=O)O)CCC3(C)C1(C)C (configuration not stated) | >57 | i |
| Nc1nc(CN2CCOCC2)cs1 | >57 | i |
| COCCn1c(=O)c(CCc2ccccc2)nc2cnc(N3CCNCC3)nc21 | x | i |
| CN(C)c1ccc(-c2cc(NCc3ccccc3)ncn2)cc1 | x | i |
| CCOC(=O)C(NC(C)=O)(Nc1ccc(F)cc1)C(F)(F)F (configuration not stated) | >57 | i |
| CCOc1cc(C(=O)NCCOC)ccc1OC | >57 | i |
| CCOC(=O)N1CCN(C(=O)C(C)n2nc(C)n3c(cc4sccc43)c2=O)CC1 (configuration not stated) | >57 | i |
| O=C(O)CC1Oc2ccc(Cl)cc2NC1=O (configuration not stated) | x | i |
| CC1Oc2ccccc2N(CC(=O)N(Cc2ccccc2)Cc2ccccn2)C1=O (configuration not stated) | >57 | i |
| c1ccc2c(c1)OCC(c1nnc3sc(-c4cnccn4)nn13)O2 (configuration not stated) | >57 | i |
| Fc1ccc(Br)cc1/C=N/n1cnnc1 | x | i |

Additional structures:
| Structure | PK Bst | TsaE inh |
| --- | --- | --- |
| CCOC(=O)c1ccccc1NC(=O)Nc1ccc(OC)c(OC)c1 | >57 | i |
| O=C(O)CSCCn1cccn1 | >57 | i |
| COc1ccc(N=C2C(=O)Nc3ccccc32)cc1 | >57 | i |
| O=C(NCC1CCCO1)c1cccc(N2CCCC2=O)c1 (configuration not stated) | >57 | i |
| CC(=O)C1=C(O)C(=O)N(CCC(=O)O)C1c1cccc(F)c1 (configuration not stated) | >57 | i |
| O=C(c1cccs1)N1CCN(C2CCN(Cc3ccccc3)CC2)CC1 | >57 | i |
| C=CCn1c(SCC(=O)Nc2nc3ccccc3s2)nnc1-c1ccccc1O | >57 | i |
| CCn1c(N)c(C(=O)NCc2ccc3c(c2)OCO3)sc1=S | >57 | i |
| Cn1c(=O)c2c(nc(N3CCCCC3)n2CCSc2nc3ccccc3s2)n(C)c1=O | >57 | i |
| O=c1[nH]cnc2[nH]ncc12 | x | i |
| O=C(c1ccco1)N1CCN(C(=O)c2cccc3c2C(=O)N(C2CCCCC2)C3)CC1 | >57 | i |
| COc1cccc(C2CC(c3cccc(C)c3)n3ncnc3N2)c1 (configuration not stated) | x | i |

Additional structures follow.
| Structure | PK Bst | TsaE inh |
| --- | --- | --- |
| CSc1nc(-c2ccco2)nn1S(=O)(=O)c1ccc(C)cc1 | x | i |
| CCOC(=O)N1CC=C2C(C#N)=C(N)C(C#N)(C#N)[C@H](c3ccsc3)[C@H]2C1 | >57 | i |
| CCOc1ccc(-c2nnc(-c3cccs3)o2)cc1OCC | x | i |
| O=C(Cc1c(C(=O)O)[nH]c2ccccc12)NC1CCN(Cc2ccccc2)CC1 | >57 | i |
| O=C(CNC(=O)c1ccccc1F)NC1CC1 | x | i |
| COC(=O)C1=C(N)Oc2cc(N(C)C)ccc2C1c1ccccc1OC (configuration not stated) | >57 | i |
| Cc1ccc(OCC(=O)Nc2nnn(C)n2)c(C)c1 | >57 | i |
| CCOC(=O)CNC(=O)C(CO)NC(=O)OCc1ccccc1 (configuration not stated) | >57 | i |
| CCNc1nc(NC(C)C)nc(N(C#N)Cc2ccccc2)n1 | >57 | i |
| Cc1ccc(NC(=O)CSc2nnc(C3CCCCC3)n2N)cc1F | >57 | i |
| Cc1cc(NC(=O)Nc2ccc(N(C)C)cc2)c2cc(F)cc(F)c2n1 | x | i |
| COc1ccc(C(c2sc3nc(C)nn3c2O)N2CCN(CCO)CC2)cc1OC (configuration not stated) | x | i |

The list continues:
| Structure | PK Bst | TsaE inh |
| --- | --- | --- |
| Cc1ccc(NC(=O)C2CCCN(S(=O)(=O)c3cnc[nH]3)C2)cc1C (configuration not stated) | x | i |
| C[C@H](CN(C)C)C(=O)c1ccccc1C(=O)O | x | i |
| COc1ccc(CN2CC(C(=O)NCCCN3CCOCC3)CC2=O)cc1 (configuration not stated) | >57 | i |
| CCC(=O)Nc1c(C)c(CC)nc2ccccc12 | >57 | i |
| CCN1C(=O)N[C@@H](c2ccccc2)C1=O | x | i |
| O=c1[nH]c(N2CCc3ccccc32)nc2c1CCCC2 | >57 | i |
| Cc1nc(C)c(C(=O)C2=C(O)C(=O)N(CCN3CCOCC3)C2c2ccco2)s1 (configuration not stated) | >57 | i |
| CCOC(=O)C1CCN(C(=O)CCn2c(=O)[nH]c3ccsc3c2=O)CC1 | >57 | i |
| CC(C)NC(=O)CN(C(=O)CCC(=O)Nc1ccccn1)c1ccc(F)c(Cl)c1 | >57 | i |
| CCCCC(=O)C1CCN(Cc2ccccc2)CC1 | >26 | x |
| Cc1cccc(NC(=O)COc2nsnc2N2CCOCC2)c1 | >57 | i |
| OC1(c2cccc(C(F)(F)F)c2)CCN(c2ncnc3c2[nH]c2ccc(F)cc23)CC1 | x | i |

The results go on.
| Structure | PK Bst | TsaE inh |
| --- | --- | --- |
| CCOC(=O)C1(Cc2ccc(O)cc2)NC(c2ccco2)C2C(=O)N(c3ccccc3F)C(=O)C21 (configuration not stated) | >57 | i |
| Cn1c(N)c(C(=O)NCc2ccccc2Cl)sc1=S | >57 | i |
| Cc1ccc(C(=O)CSC2=C(C#N)C(c3ccco3)C3=C(CC(C)(C)CC3=O)N2)cc1 (configuration not stated) | >57 | i |
| C=CCNC(=O)c1ccc(C(=O)c2ccccc2)cc1 | >57 | i |
| CS(=O)(=O)N1CCC(C(=O)Nc2ccc(Br)cc2F)CC1 | >57 | i |
| CCOC(=O)C1C(c2ccc(C)o2)NC(=O)NC1(O)C(F)(F)F (configuration not stated) | >57 | i |
